Screens deposited in PubChem by ICCB-Longwood Screening Facility, Harvard Medical School.
Mtb MenB inh: inhibitors of Mycobacterium tuberculosis MenB enzyme. P9WNP5. MenB enzyme assay, absorbance read-out; some hits fall short of the stated cut. inhibition, %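 (about 12 µg/mL by stock and volumes)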. actives 0.43% (n = 100,000). AID 540299;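 active = mean of two replicates above 30%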;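 note: 0% = no compound and 100% = wells with inactive enzyme; the first replicate is given; strong numbers were not always called active; inactives centre near -10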
Target sequence (P9WNP5 whole entry, looked up): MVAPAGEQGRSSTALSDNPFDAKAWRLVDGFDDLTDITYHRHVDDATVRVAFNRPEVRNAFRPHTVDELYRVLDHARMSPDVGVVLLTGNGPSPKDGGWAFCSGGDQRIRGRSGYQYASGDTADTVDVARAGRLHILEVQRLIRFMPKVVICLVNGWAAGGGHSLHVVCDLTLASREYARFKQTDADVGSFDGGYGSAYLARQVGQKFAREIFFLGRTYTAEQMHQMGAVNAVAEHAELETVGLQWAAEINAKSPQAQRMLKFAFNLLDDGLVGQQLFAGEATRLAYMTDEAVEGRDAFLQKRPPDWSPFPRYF
PV pol inh: inhibitors of poliovirus RNA polymerase binding and polymerization. P03300. poliovirus polymerase elongation, fluorescence polarization; active compounds read low. % elongation, % (compound at 16.7 µg/mL). actives 0.66% (n = 150,000). AID 588519; in the data active = % elongation below about 90%; note: some results filed as inactive read as strong as hits
MbtI inh: MbtI salicylate synthase inhibition; purified MbtI enzyme, fluorescence intensity read-out; inhibition, %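 (about 17 µg/mL by stock and volumes)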; actives 0.89% (n = 100,000); AID 493033;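 active = above 50% in both replicates, above 80% if mildly self-fluorescent; inactive = the rest, strongly fluorescent compounds included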;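 note: 0% = mean of negative and 100% = mean of positive controls; one replicate is shown; some compounds called inactive have numbers as strong as hits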
Target sequence (P9WFX0 whole entry, looked up): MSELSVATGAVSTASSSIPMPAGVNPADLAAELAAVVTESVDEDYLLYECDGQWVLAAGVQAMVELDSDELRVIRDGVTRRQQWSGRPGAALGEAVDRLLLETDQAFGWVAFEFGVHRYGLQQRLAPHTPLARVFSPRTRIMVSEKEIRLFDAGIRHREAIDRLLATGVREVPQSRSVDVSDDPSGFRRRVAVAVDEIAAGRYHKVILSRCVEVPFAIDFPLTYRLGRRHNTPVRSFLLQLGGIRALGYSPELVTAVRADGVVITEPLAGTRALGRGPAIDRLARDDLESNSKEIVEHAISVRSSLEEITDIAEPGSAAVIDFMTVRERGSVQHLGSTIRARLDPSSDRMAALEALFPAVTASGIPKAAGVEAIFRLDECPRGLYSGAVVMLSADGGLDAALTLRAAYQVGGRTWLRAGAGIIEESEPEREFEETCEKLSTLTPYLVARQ
PV pol inh intensity: further read-out of PV pol inh, marked with its call; % elongation; measured here: total intensity read-out; formula for this scale not given here;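 total fluorescence in place of polarization; lower means less elongation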
* hit, by the source's call; i = inactive; · = no result given; & = joins results of further samples.

SMILES	Mtb MenB inh	PV pol inh	PV pol inh intensity	MbtI inh
CCCn1c(N)c(C(c2cc(OC)c(OC)c(OC)c2)N2CCCC2)c(=O)[nH]c1=O (configuration not stated)	-4	103	102	2
Cc1cccc(NC(=O)N2CCCC2C(=O)O)c1 (configuration not stated)	8	101	102	-4
Cn1nc(-c2ccc(C(=O)Nc3cccnc3)cc2)c2ccccc2c1=O	12	101	101	2
CSc1nc(-c2ccc(Cl)cc2)nn1S(=O)(=O)c1ccc(NC(C)=O)cc1	-51	103	103	28
CC1(C)NC(C)(C)/C(=N\O)C(=NO)/C1=N\O	-31	99	103	-10
CSc1nn(-c2ccccc2)cc1/C(N)=N/OC(=O)Nc1ccccc1	1	104	105	-40
COc1cc(OC)cc(-c2cc3nc(-c4ccccc4)cc(N4CCN(c5ccccc5)CC4)n3n2)c1	-5	100	100	1
CC12CN3CC(C)(CN(C1)C3C(O)C(O)C(O)CO)C2 (configuration not stated)	9	100	101	-5
CN1/C(=C\C=C2C(=O)c3ccccc3C2=O)Sc2ccccc21	·	125	165	-8
C=CCn1c(=N)n(CC(O)c2ccc(OCC)cc2)c2ccccc21 (configuration not stated)	-27	105	101	-5
CC(=NCCc1ccc(F)cc1)C1=C(O)c2ccccc2C1=O	-30	104	108	-17
O=C(Nc1cccc(C(F)(F)F)c1)NC1(c2ccccc2)CC1	-6	107	115	·
CCOc1ccc(N2CC(C(=O)O)CC2=O)cc1 (configuration not stated)	·	103	96	-1
O=c1[nH]c(-c2ccc(Br)cc2)nc2ccccc12	-36	99	102	75
Cc1[nH]c2ccccc2c1C1CC(=O)N(c2ccccc2)C1=O (configuration not stated)	8	104	100	38
Cc1cc(C)c(N2C(=O)c3nccnc3C2=O)c(C)c1	6	101	105	3
CC(C)(C)c1ccc(COC(=O)C2=COCCO2)cc1	-25	103	101	-6
O=S(=O)(c1ccc2oc(SCc3cn4cc(Cl)ccc4n3)nc2c1)N1CCOCC1	-20	98	99	70
CCOC(=O)N1CCN(C(=O)CN2C(=O)/C(=C\c3cccc(Cl)c3)Sc3ccccc32)CC1	-31	102	99	8
CC1(C)NC(=S)c2ccccc2N1	-95	100	105	53
COc1ccc(-n2ccnc(SCC(=O)Nc3ccccc3)c2=O)cc1	-9	99	103	-232
Cc1ccc2nc(NC(=O)c3ccc(=O)[nH]c3)sc2c1	-21	113	119	-70
N#C/C(=C(/O)COc1ccccc1)c1nc2ccccc2[nH]1	-15	104	103	-3
S=c1[nH]nc(-c2ccccc2)n1-c1ccccc1	-17	101	103	3
NS(=O)(=O)c1ccc(CCNC(=S)NCc2ccco2)cc1	6	100	105	15
O=C(c1cc2ccccc2oc1=O)N1N=C(c2ccccc2)CC1c1ccccc1 (configuration not stated)	-24	101	91	12
CCOC(=O)C1=C(O)/C(=C/c2cccs2)SC1=Nc1ccccc1	-10	104	97	5
Cc1nnc2c(=O)n(-c3cccc(F)c3)ccn12	-28	101	102	5
COc1ccc(NC(=O)C(C)N2C(=O)c3ccccc3S2(=O)=O)c(OC)c1 (configuration not stated)	-6	103	116	20
O=C(O)Cc1cccnc1	-22	101	98	20
CS(=O)(=O)N1Cc2ccccc2CC1C(=O)OCc1nc2ccccc2c(=O)n1CC#N (configuration not stated)	-29	106	116	-5
O=C(OCC(=O)c1cccs1)c1ccco1	11	102	104	6
COc1cc(Cl)c(C)cc1NC(=S)N(CCN(C)C)C(C)c1ccco1 (configuration not stated)	0	99	99	22
CCN(CC)c1nc2ccccc2[nH]1	·	103	101	-10
O=C(O)CC(O)(CC(=O)O)C(=O)O	-36&3	106&101	100&97	9&-8
COc1ccc(S(=O)(=O)CCC(=O)N(C)c2ccc(OC)cc2OC)cc1	-1	105	109	-14
O=C(/C=C/c1ccc(S(=O)(=O)N2CCOCC2)cc1)N1CCCCC1	-18	105	106	11
CCc1ccc(C(=O)N(CC)Cc2ccncc2)s1	-4	101	103	-12
CCOC(=O)Cn1c2c(sc1=N)CC(C(C)(C)C)CC2 (configuration not stated)	-16	99	108	·
O=C(NCc1ccccc1)c1ccc2c(c1)N(Cc1ccccc1)CCS2	-7	103	104	109
CCOC(=O)COc1ccc(S(=O)(=O)Nc2cccc(SC)c2)cc1	-25	98	101	1
COC(=C(C#N)C#N)c1ccccc1	·	103	99	-4
Cc1ccc(N(Cc2ccco2)S(=O)(=O)c2ccc(F)cc2)cc1	-25	101	103	-12
CC[C@@H](C)C(=O)O[C@H]1[C@H](O)[C@H]2[C@@H](CN3C[C@@H](C)CC[C@H]3[C@@]2(C)O)C2C[C@]34O[C@@]5(O)[C@@H](OC(=O)C(C)(O)CC)CC[C@@]3(C)[C@@H]5[C@@H](OC(C)=O)[C@@H](OC(C)=O)[C@H]4[C@@]21O (some centres not stated)	-3	103	97	-14
CCOC(=O)c1cnc2ccc(C(=O)OC)cc2c1NCCN(C)C	-2	100	103	-11
COc1ccccc1NC(=O)N1CCNCC1	-51	101	99	4
Cc1ccc(NC(=O)C(C)OC(=O)CSc2ccccc2)cc1 (configuration not stated)	-11	105	102	-9
CC[C@H](C)NC(=O)Cc1ccc(NC2=NC3CS(=O)(=O)CC3S2)cc1 (some centres not stated)	7	101	105	-2
O=C(O)CC(NC(=O)c1cncc(O)c1)C(=O)O (configuration not stated)	-17	104	101	116
N#C/C(=C/c1ccc(-c2ccc(C(=O)O)cc2)o1)c1ccc(Cl)cc1	-67	95	113	-29
COc1ccc(-c2cc(C(=O)O)c3ccccc3n2)cc1OC	5	101	103	4
O=C(c1ccccc1)N(Cc1ccco1)Cc1ccco1	-8	103	102	-2
COc1ccc(-c2nc(C#N)c(N3CCN(C)CC3)o2)cc1	-8	98	100	i
Cc1[nH]c2ccccc2c1C(=O)CSC(=S)N1CCCCC1	-3	100	104	17
Cc1csc(NC(=O)C2CCCN(S(=O)(=O)c3cccc4nsnc34)C2)n1 (configuration not stated)	-43	104	103	7
N#Cc1cccc(NC(=O)CCC(=O)N2CCN(S(=O)(=O)c3ccccc3)CC2)c1	0	100	104	9
CCCc1nc(N)c(C#N)c(-c2cccs2)c1CC	8	98	103	49
CN1CCC(N(C)C(=O)NC2CCCCC2)CC1	4	100	101	-2
O=C1C=CC(=C(c2ccc(O)cc2)c2ccc(O)cc2)C=C1	-1	100	98	-27
OCCN1CCN(c2ncnc3c2cnn3-c2ccc(Cl)c(Cl)c2)CC1	-5	98	100	63
Remaining list, next part:
SMILES	Mtb MenB inh	PV pol inh	PV pol inh intensity	MbtI inh
CCC1Oc2ccc(C)cc2N(CC(=O)N(Cc2ccc(F)cc2)CC2CCCO2)C1=O (configuration not stated)	-11	102	103	-9
CC(=O)N1CC=C(c2ccc(O)cc2)CC1	-3	102	106	-1
CCOc1ccc(/C=C/C(=O)NCC(C)C)cc1OCC	2	·	·	-8
N#Cc1cccnc1Cl	-15	98	102	22
CCCCCC(=O)NC1CCN(Cc2ccccc2)CC1	-7	101	104	-4
COc1cccc(-c2cc(C(=O)NC3CCC(C)CC3)[nH]n2)c1 (configuration not stated)	7	100	102	4
c1ccc2c(c1)sc1nnc(Sc3ncnc4sc5c(c34)CCCC5)n12	-16	103	101	-13
CCN(CC)C(=O)c1cc(-c2ccccc2)n[nH]1	-2	103	107	-6
CCCC(=O)NNc1ncc(C(=O)OCC)c(C(F)(F)F)n1	-12	103	104	13
NC(=O)CCN1C(=O)C2C3C=CC(C3)C2C1=O (configuration not stated)	-2	104	108	·
CC1(C)CC(NC(=O)c2ccncc2)CC(C)(C)N1O	6	95	95	·
N#CC1=C(N)S[C@H](C(=O)c2ccccc2)[C@H]1c1ccc(Br)c(F)c1	-8	107	102	·
Cc1ccc(NC(=O)c2cccc3c2C(=O)c2ccccc2-3)cc1	-11	106	114	·
N=Cc1c(C(F)(F)F)[nH]n(-c2nc3ccccc3s2)c1=O	-6	101	96	6
COc1cc(CNCC2CCCO2)cc(Cl)c1OCC(N)=O (configuration not stated)	-8	99	99	-12
CCN(CC)S(=O)(=O)c1ccc2[nH]c(=O)c3ccccc3c2c1	-82	103	100	0
Nc1nc(-c2ccc(OCc3ccc(Br)cc3)cc2)cs1	-17	111	115	·
Oc1ccc(C=Nc2cccnc2)cc1	-4	101	103	96
Cc1cc(C(=O)OCc2cc(=O)oc3cc(C)c(Cl)cc23)c(C)o1	11	101	99	4
CN(C)c1nc(-c2ccc(Cl)cc2)[nH]c(=O)n1	4	105	100	5

Ordered by SMILES length (lowest first): some entries from above.
SMILES	Mtb MenB inh	PV pol inh	PV pol inh intensity	MbtI inh
NC(=O)CCN1C(=O)C2C3C=CC(C3)C2C1=O (configuration not stated)	-2	104	108	·
CCCC(=O)NNc1ncc(C(=O)OCC)c(C(F)(F)F)n1	-12	103	104	13
Cc1ccc(NC(=O)c2cccc3c2C(=O)c2ccccc2-3)cc1	-11	106	114	·
Cc1cc(C(=O)OCc2cc(=O)oc3cc(C)c(Cl)cc23)c(C)o1	11	101	99	4

Reformatted in CSV form: entries from further up.
Structure,Mtb MenB inh,PV pol inh,PV pol inh intensity,MbtI inh
CC(=O)N1CC=C(c2ccc(O)cc2)CC1,-3,102,106,-1
CCOc1ccc(/C=C/C(=O)NCC(C)C)cc1OCC,2,·,·,-8
N#Cc1cccnc1Cl,-15,98,102,22
CCCCCC(=O)NC1CCN(Cc2ccccc2)CC1,-7,101,104,-4
COc1cccc(-c2cc(C(=O)NC3CCC(C)CC3)[nH]n2)c1 (configuration not stated),7,100,102,4
c1ccc2c(c1)sc1nnc(Sc3ncnc4sc5c(c34)CCCC5)n12,-16,103,101,-13
CCN(CC)C(=O)c1cc(-c2ccccc2)n[nH]1,-2,103,107,-6

New compounds follow.
SMILES	Mtb MenB inh	PV pol inh	PV pol inh intensity	MbtI inh
O=C(CNCc1ccc(F)cc1)N1CCC2(CC1)OCCO2	-20	104	104	-5
O=C(c1cccs1)c1coc2ccc(O)c(CN(CCO)CCO)c12	10	98	108	·
CNC(=O)NC(=O)CN1C(=O)c2ccccc2C1=O	-4	109	110	-2
O=C(COC(=O)c1ccccn1)Nc1ccccc1	4	104	103	-6
CC(C)CC(NS(=O)(=O)c1ccc2[nH]c(=O)c(=O)[nH]c2c1)C(=O)O (configuration not stated)	-14	101	100	-51
CC1(C)CC(=O)c2cnc(NC(=O)CSCC(=O)Nc3cccc(F)c3)nc2C1	-35	105	102	-7
O=C(OCC(=O)N1CCc2ccccc2C1)c1ccc(Br)o1	·	101	106	-5
N=C(N)SCP(=O)(c1ccccc1)c1ccccc1	49*	99	100	21
N#CC(C(=Nc1ccccc1)SCc1ccc(Cl)cc1)c1nc2ccccc2[nH]1 (configuration not stated)	-40	111	109	2
Cc1cc(SCc2ccc(C(F)(F)F)cc2)nc(=O)[nH]1	11	103	105	13
Cc1cc2[nH][nH]c(=O)c2c(C)n1	-24	102	101	5
CCc1ccc(NC(=O)NCCCN2CCCc3ccccc32)cc1	-26	101	103	-6
CCOc1ncccc1C(=O)N1CCCSC1=Nc1ccccc1OC	10	101	103	-9
CNC(=O)OCc1cccc(COC(=O)NC)n1	-18	103	100	3
CN(C)c1ncc2c(=O)n(CC3CCCO3)ccc2n1 (configuration not stated)	-7	102	103	8
CCOC(=O)c1cc(-c2ccccc2)sc1NC(=S)Nn1cnnc1	-16	100	102	-6
Cc1onc(-c2ccccc2)c1NC(=O)N(Cc1ccccc1)C(C)C	-2	105	105	-12
O=C(NC(c1ccccc1)c1nnc(-c2ccccc2)o1)c1cccc(Cl)c1 (configuration not stated)	11	100	102	-10
CC1(C)Cc2ccccc2/C(=C/C(=O)Nc2ccccc2)N1	-33	105	107	-7
COc1ccc(OCC(=O)NCc2nc3ccccc3[nH]2)cc1	·	102	106	-7
O=C(OC(C(=O)c1ccccc1)c1ccccc1)c1ccccn1 (configuration not stated)	-32	103	111	-3
CC(Oc1ccccc1)C(=O)n1c(=O)oc2ccccc21 (configuration not stated)	8	100	101	15
Cc1nc2c(c(C)c1CCC(=O)NCCC1=CCCCC1)c(=O)n(C)c(=O)n2C	-19	99	104	-4
C=C(C)c1cccc(C(C)(C)NC(=O)Nc2ccc(N3CCOCC3)cc2)c1	5	100	103	-18
Cc1ccc(CS(=O)Cc2ccc(C(=O)NCc3cccnc3)o2)cc1 (configuration not stated)	4	100	102	-7
CC(C)CC(C(N)=O)N1C(=O)c2ccccc2C1=O (configuration not stated)	-57	101	101	12
CN1CCC(N(C)C(=O)c2cc3ccccc3oc2=O)CC1	·	102	97	8
Cc1c(C(=O)N(CC2CCCO2)C2CCS(=O)(=O)C2)oc2ccc(F)cc12 (configuration not stated)	2	99	102	-1
c1ccc(CSc2nnnn2-c2ccccc2)cc1	-7	101	98	20
O=C(CSc1ccccc1)N1CCCCCC1	-28	103	99	·
CN(C)CC(O)C1CCOC(C)(C)C1 (configuration not stated)	-1	102	106	-3
NC(=NCCCCCCN=C(N)/N=C(\N)Nc1ccc(Cl)cc1)/N=C(\N)Nc1ccc(Cl)cc1	-5&-8	100&99	102&100	24&2
CC(=O)N/C(=C/c1ccccc1)C(=O)N1CCCCC1	-34	100	102	2
O=C1SC(Nc2ccccc2Br)C(=O)N1c1ccccc1 (configuration not stated)	-3	99	107	9

Rows were taken by chance. Share with any hit: about 1.8%.
